# GLA inh pH 4.5: qHTS Assay for Inhibitors of Human alpha-Galactosidase at pH 4.5. Alpha-galactosidase A (Homo sapiens), P06280. purified enzyme, 4-MU-alpha-Gal fluorescence, pH 4.5. activity change, negative = inhibition, % at 105 µM. 230,000 tested, under 10 active. AID 1467, 2008; inconclusive = small, poorly fitted or top-dose-only inhibition, or a rising curve; inactive = flat fitted curve, though single readings scatter; no compound was filed as active;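 further: 0% = full activity with enzyme and -100% = basal without enzyme; dose as in the result columns while the protocol names 77 µM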
# Target sequence (P06280 whole entry, looked up): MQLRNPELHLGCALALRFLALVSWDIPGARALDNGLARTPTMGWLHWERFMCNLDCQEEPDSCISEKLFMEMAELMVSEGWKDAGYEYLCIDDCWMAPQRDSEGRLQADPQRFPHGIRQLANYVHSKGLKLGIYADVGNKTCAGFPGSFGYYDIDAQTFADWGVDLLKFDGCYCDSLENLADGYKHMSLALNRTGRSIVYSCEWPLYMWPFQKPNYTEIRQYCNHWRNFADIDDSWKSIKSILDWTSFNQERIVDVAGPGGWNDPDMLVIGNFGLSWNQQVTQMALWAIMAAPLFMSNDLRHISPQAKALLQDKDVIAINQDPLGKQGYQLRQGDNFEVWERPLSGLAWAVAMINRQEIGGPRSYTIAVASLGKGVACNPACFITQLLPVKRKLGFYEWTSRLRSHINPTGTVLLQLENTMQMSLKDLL
# Rango-impB inh: qHTS Assay for Inhibitors of Rango (Ran-regulated importin-beta cargo) - Importin beta complex formation; Importin subunit beta-1 (Homo sapiens), Q14974; Rango CFP/YFP FRET sensor + importin beta, 45 min; Potency, µM (titrated, usually from 92.2 µM), inactives show top-dose inhibition of complex formation; 340,000 compounds, 0.031% hits; active = rising FRET ratio curve, often small or poorly fitted; inconclusive = mostly compound fluorescence or quenching in the first reads; inactive = flat curves in all reads;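 further: potency means the concentration at half of the fitted maximal effect; 0% = DMSO wells and 100% = buffer wells lacking importin beta; nearly all actives have a fitted effect of over 15% in size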
#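 FRET biosensor Rango (snurportin 1 IBB between N-terminal EYFP and C-terminal Cerulean), 50 nM in PBS/1 mM DTT/0.02% Tween-20/0.1% BSA, preincubated 5 min RT with compound; 0.125 microM importin beta added, 45 min RT, CFP/YFP FRET ratio read.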
# Rango dissoc inh: qHTS Assay for Inhibitors of RanGTP induced Rango (Ran-regulated importin-beta cargo) - Importin beta complex dissociation; Biochemical FRET Rango-importin beta, RanGTP-induced dissociation; Snurportin-1 (Homo sapiens) + GTP-binding nuclear protein Ran (Homo sapiens) + Importin …; 340,000 compounds, 0.071% hits; AID 540253, 2011; Potency, µM (highest dose often 46.1 µM), for inactives: at the highest dose activity change, negative = inhibition; active means falling FRET ratio curve, often poorly fitted, with flat reads before Ran was added; inconclusive means other falling curves, or compound fluorescence or quenching; inactive means flat or rising ratio curve;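 further: potency means the concentration at half of the fitted maximal effect; % of control where 0% means no effect; nearly all actives have a fitted effect of over 45% in size; -100% = wells without RanGTP and RCC1; the record marks most hits as doubtful in a second field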
#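 Compounds preincubate 5 min with complex of recombinant Rango and importin beta in PBS with 1 mM DTT. Ran (0.6 uM) loaded with 2 mM GTP plus 0.2 uM RCC1 starts dissociation; FRET is recorded 45 min later.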
# miR-21 reporter: qHTS Assay for Modulators of miRNAs and/orActivators of miR-21. Potency, µM (highest dose often 38.3 µM), for the others: top-dose reporter change, positive = more light. 340,000 tested, under 10 active. HeLa miR-21 FLuc reporter, luciferase, 48 h. AID 2288, 2010; active = well fitted rising curve with a large enough effect; inconclusive = small, poorly fitted or top-dose-only effect; inactive = no such curve, though single readings can be large or run the other way;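 further: % of control where 0% means no effect; miR-21 action dims this reporter so a rising signal means less miR-21 action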
#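 HeLa cells stably expressing CMV-driven firefly luciferase with a downstream miR-21 binding sequence, endogenously expressing miR-21, were treated with titrations (up to about 40uM final) for 48 hours at 37 degree Celsius. Luciferase luminescence was read after lysis.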
# Numbers without * were called inactive; ? = inconclusive; nt = not tested or not shown; & = joins results of further samples; [ ] = another dose, or the depositor's remark. The list is partial. The share of hits here may be higher or lower than overall.
Compound	Rango dissoc inh	miR-21 reporter	Rango-impB inh	GLA inh pH 4.5
CC(=O)N/C(=C\c1ccc2c(c1)OCO2)C(=O)NC(C(=O)O)c1ccccc1 (centres undefined)	-1%	-1%	4.9%	-6
COC(=O)CCCN1C(=O)c2cccc3cccc(c23)C1=O	-17%	-29%	4.0%	nt
CC(NC(=O)/C=C/c1ccco1)c1nc2ccccc2n1Cc1ccccc1F (centres undefined)	-2%	-1%	-3.8%	0
CS(=O)(=O)c1ccc(NC(=O)C2CCCN(C(=O)c3ccc(Cl)cc3)C2)cc1 (centres undefined)	-15%	nt	-6.0%	nt
CCOCC(=O)N1CCN(Cc2ccc3c(c2)OCO3)CC1	11%	0%	6.4%	nt
Cc1cc(Oc2ccccc2)nc(N)n1	-10%	-11%	?	4
CCCCCn1c(=O)[nH]c2cc(C(=O)N3CCN(CC)CC3)ccc2c1=O	-6%	0%	-0.2%	18
COc1ccc(C(=O)/C=C/Nc2cc(C)on2)cc1	-6%	-67%	-2.1%	0
Cc1noc(C)c1-c1nc(CSc2ccc(Cl)cc2)no1	1%	0%	0.0%	1
N#Cc1cnn(-c2ccccc2)c1NC(=O)c1ccccc1F	3%	nt	0.4%	nt
O=C(Nc1cccc2ncccc12)c1ccccc1Cl	-13%	-1%	-1.4%	nt
CN1CCN(C(c2cccc(C(F)(F)F)c2)c2nnnn2C(C)(C)C)CC1 (centres undefined)	-14%	-1%	1.8%	3
COc1cccc(C(=O)COC(=O)c2ccc(NC(=O)c3ccccc3)cc2)c1	26%	nt	0.0%	nt
COc1cc(C(=O)NCCCn2ccnc2)cc(OC)c1OC	11%	-2%	6.0%	5
Cc1ccc(-c2ccc(/C=N/NC(=S)Nc3ccccc3)o2)cc1[N+](=O)[O-]	0%	6%	?	-1
N#CC(c1nc2ccccc2nc1N1CCCC1)S(=O)(=O)c1ccccc1 (centres undefined)	?	-4%	?	9
CCN(C(=O)CN1C(=O)COc2ccc(S(=O)(=O)N3CCCCCC3)cc21)c1cccc(C)c1	0%	5%	0.1%	nt
COc1cc(NC(=O)CN2C(=O)C(=O)N(C3CCCC3)C2=O)cc(OC)c1	8%	nt	-0.2%	nt
Fc1ccc2[nH]c3c(N4CCc5ccccc5C4)ncnc3c2c1	-14%	?	-3.1%	-3
COC(=O)C(C)NC(=O)C12CC3CC(C1)CC(c1ccc(C)cc1)(C3)C2 (centres undefined)	-8%	-1%	-2.7%	nt
O=C(c1ccccc1F)N1CCN(c2ncccn2)CC1	5%	0%	-2.9%	1
CCN(CC(=O)NC1CCS(=O)(=O)C1)S(=O)(=O)c1cc(Br)ccc1Br (centres undefined)	-9%	nt	-0.4%	nt
COc1cccc2cc(CC(=O)c3ccc(C)c(C)c3)c(=O)oc12	8%	-12%	2.0%	nt
Cc1ccc(-n2cc(CN(C)Cc3nccn3C)c(-c3cccc(C)c3)n2)cc1	2%	0%	3.0%	-7
CCOC(=O)c1cc(C#N)c(Oc2ccccc2)nc1-c1ccccc1	-16%	12%	1.1%	-3
CCN1CCN(CCNC(=O)c2ccc3c(c2)N(Cc2ccc(F)cc2)C(=O)/C(=C/c2ccccc2)S3)CC1	-19%	27%	0.1%	-10[21.1 µM]
C=CCN1C(=O)S/C(=C\c2ccc(N3CCOCC3)cc2C)C1=O	?	-36%	?	-9
Cc1ccccc1NC(=O)COc1ccccc1C	11%	-39%	-6.6%	nt
Cn1c(Cn2c(=O)sc3ccccc32)nnc1SCC(=O)Nc1ccccc1F	6%	-4%	-2.1%	1
C=CCn1c(Cc2csc(N)n2)nnc1SCC(=O)Nc1ccccc1C(F)(F)F	0%	-2%	-1.4%	2
CC1C=CCC2C(=O)N(c3ccc(Cl)cc3O)C(=O)C12 (centres undefined)	1%	-15%	0.2%	7
O=C(Nc1ccccc1)N(CCCN1CCOCC1)Cc1cccs1	15%	-10%	1.4%	2
Cc1ccccc1NC(=S)NCc1ccco1	9%	-3%	-0.3%	0
COc1cc2[nH]c(=O)n(Cc3ccc(C(=O)NCC4CCCO4)cc3)c(=O)c2cc1OC (centres undefined)	8%	-5%	-1.5%	-4
Cn1c(=O)c2c(nc(CN3CCc4ccccc4C3)n2Cc2ccccc2F)n(C)c1=O	15%	1%	-7.7%	-4
CCCOc1ccc(Cn2c(=O)oc3ccc(C)cc32)cc1OC	2%	-9%	-0.8%	3
Cc1ccccc1-n1nnnc1SCc1ncc(-c2ccccc2)o1	-6%	-14%	-1.5%	-11
Cc1nc(NC(=O)CN2CCCCC2)sc1C(=O)N(C)C	11%	-5%	-1.6%	nt
OCCC1CN(Cc2cnc(-c3cccc4ccccc34)nc2)CCN1C1CCCCC1 (centres undefined)	-12%	-1%	0.3%	0
COc1ccc(CCNC(=O)CSCC(=O)Nc2ccccc2)cc1OC	-8%	-1%	1.7%	-3
O=C(Nc1ccccc1Cl)c1ccc2c(=O)n3c(nc2c1)CCC3	-3%	nt	-0.1%	nt
CC(C)=NNc1nc2c(c(=O)[nH]c(=O)n2C)n1CCCc1ccccc1	?	-4%	-4.1%	nt
CN1C(=O)c2cccc3c(Cl)ccc(c23)C1=O	18%	-2%	-0.6%	2
O=C(c1ccccc1)c1ccc(N2CCCC2)cc1	-18%	-37%	?	-6
C/C(=N\NC(N)=O)c1ccccc1Cl	7%	-4%	1.2%	-6
COc1ccc(Cl)cc1NC(=O)CN(C)CC(=O)NCc1cccs1	-3%	nt	0.8%	nt
COC(=O)c1ccccc1NC(=O)c1cc2nc(C3CC3)cc(C(F)(F)F)n2n1	26%	0%	0.0%	-2
Cc1ccccc1-c1nnc(SCC#N)o1	-11%	-24%	-0.9%	1

# Record cards (already shown). Order of values: Rango dissoc inh, miR-21 reporter, Rango-impB inh, GLA inh pH 4.5
# Shown for `COc1cccc2cc(CC(=O)c3ccc(C)c(C)c3)c(=O)oc12` → 8%, -12%, 2.0%, nt
# Shown for `Cc1nc(NC(=O)CN2CCCCC2)sc1C(=O)N(C)C` → 11%, -5%, -1.6%, nt

# The listing continues:
Compound	Rango dissoc inh	miR-21 reporter	Rango-impB inh	GLA inh pH 4.5
CC(C)NC(=O)Nc1cccc2c1O[C@H](CN(C)C(=O)Nc1ccc(C(F)(F)F)cc1)[C@@H](C)CN([C@H](C)CO)C2=O	-2%	nt	0.0%	nt
O=C(CCN1CCOCC1)c1ccc(Br)cc1	2%	0%	-0.2%	-4
O=C(CSc1ncnc2c1cnn2-c1ccc(Cl)cc1)NCc1ccc2c(c1)OCO2	5%	-27%	-0.6%	-1
CN(Cc1ccc(F)cc1)S(=O)(=O)c1nnc(NC(=O)c2ccccc2)s1	-9%	-1%&-1%	-0.9%	nt
CCn1c2ccccc2c2cc(/C=C(/C#N)C(N)=S)ccc21	-4%	nt	-4.2%	nt
CSc1ccc(S(=O)(=O)Nc2c(C)n(C)n(-c3ccccc3)c2=O)cc1	-4%	-1%	-0.5%	nt
O=c1c2ccccc2nc2c3ccccc3c(Cl)nn12	nt	-4%	nt	12
O=C(Nc1ccccn1)c1cc(-c2ccc(Cl)s2)nc2ccccc12	1%	nt	?	nt
O=[N+]([O-])c1ccccc1CNC(Cc1ccccc1)c1ccccc1 (centres undefined)	-4%	0%	-2.1%	-13
O=C(CSc1nnc2c(n1)[nH]c1ccc(F)cc12)NCc1ccc(F)cc1	13%	-1%	1.0%	nt
CC(C)c1ccccc1NC(=S)NCc1nc2ccccc2[nH]1	-1%	-8%	-3.2%	-18
CCOC(=O)[C@H]1[C@H]2COc3ccc(Br)cc3[C@@H]2N2C(=O)N(c3ccccc3)C(=O)[C@@]12C	23%	nt	3.6%	nt
O=[N+]([O-])c1ccc(N/N=C2\CC3CC=CC23)c([N+](=O)[O-])c1 (centres undefined)	-7%	1%	0.9%	-8
COc1ccc(OC)c(-n2c(SCC(=O)NCc3ccco3)nnc2-c2c[nH]c3ccccc23)c1	15%	-14%	-1.2%	-14
Cc1cc(SCC(=O)OCC(=O)NCC2CCCO2)c(C)cc1Br (centres undefined)	14%	-4%	-2.7%	-2
O=C(Cc1ccc(Br)c2ccccc12)N/N=C/c1ccccn1	0%	16%	1.2%	-10
COc1cc(S(=O)(=O)NCCc2ccc3c(c2)OCO3)ccc1-n1cnnn1	2%	-3%	-4.0%	-6
COc1cc2nc(Nc3ccc(C)c(C)c3)nc(N)c2cc1OC	-5%	1%&-39%	3.6%	nt
COc1cccc2cc(C(=O)N3CCc4ccccc4C3)c(=O)oc12	?	-64%	-4.8%	5
Cc1cc(C)cc(OCC(=O)O/N=C(\N)c2cccnc2)c1	-1%	-3%	-3.8%	-3
COc1cc(/C=N/NC(=O)c2sc(N)c(C#N)c2C)cc(Br)c1O	-9%	-43%	?	-7
CC(Sc1ncnc2ccccc12)C(=O)Nc1ccc2c(c1)OCCO2 (centres undefined)	14%	2%	0.8%	1
c1cnc(SCCOc2ccc3c(c2)CCC3)nc1	-2%	-43%	-4.1%	-2
COc1cccc(C2(O)CCN(CC(=O)NCC3CC3)CC2)c1	0%	-1%	0.7%	3
Cn1c(=O)c2nc3ccccc3nc2n(C)c1=O	-17%	6%	?	-21
CN1CCN(NC(=O)c2cccc(F)c2)CC1	8%	1%	1.4%	7
COCCOc1ccc(C(F)(F)F)cc1N	-3%	-1%	1.8%	-23
CC(C)c1nnc(NC(=O)CCC(=O)NCc2ccco2)s1	-1%	0%	0.1%	2
COc1ccc(-c2cc(C)no2)cc1S(=O)(=O)N(C)Cc1ccco1	7%	-1%	-2.8%	nt
COc1ccc2c(c1)c1nnc(SCC(=O)Nc3ccccc3F)nc1n2C	-2%	2%	-0.2%	nt
COc1cc(C)ccc1OCC(=O)OCC(=O)c1cc(C)n(CC2CCCO2)c1C (centres undefined)	-7%	nt	4.3%	nt
Cc1nn(C)c(Cl)c1CN1CCCC(CO)(Cc2ccccc2)C1 (centres undefined)	6%	-1%	-2.0%	3
O=C1c2ccccc2C(Nc2ccc(S(=O)(=O)N3CCOCC3)cc2)N1Cc1ccco1 (centres undefined)	?	2%	1.7%	?
COc1ccc(CCNC(=O)c2cc(-c3cc(C)ccc3O)n[nH]2)cc1OC	-13%	-1%	-3.1%	-11
O=c1[nH]c2ccsc2c(=O)n1-c1ccc(F)cc1	-8%	-6%	-3.0%	4
Cc1csc(NC(=O)Cc2c(F)cccc2Cl)n1	-12%	-52%	-1.9%	nt
O=C(c1cc2ccccc2oc1=O)N1CCN(C(=O)C2CCCO2)CC1 (centres undefined)	-1%	-6%	-4.4%	-3
COc1cccc2c(=O)n(CC(=O)NCCc3ccccc3)ccc12	7%	5%	-0.5%	1
COc1ccc(C(=O)NNC(=S)NC(=O)C(C)(C)C)cc1	28%	17%	-1.0%	2
CC1CN(C(=O)COC(=O)[C@@H]2CC(O)CN2S(=O)(=O)c2ccc3c(c2)OCCO3)CC(C)O1 (some centres undefined)	0%	-4%	-1.4%	3
O=C(Nc1ccc(N2CCOCC2)c(F)c1)c1ccncc1	-1%	-6%	0.2%	-1
COc1ccc(C(CNC(=O)Cc2c(F)cccc2Cl)N2CCCCC2)cc1 (centres undefined)	-8%	5%	4.3%	-4
COc1ccc(-c2onc(C)c2-c2ccccc2)c(O)c1	-2%	25%	0.2%	-4
CC(=O)c1ccc(OCc2cc(C(=O)N3CCCCC3c3cccnc3)no2)cc1 (centres undefined)	-2%	-11%	2.1%	nt
